UUG fidelity – yeast start codon fidelity modulation. 350,000 compounds, 0.13% hits. AID 602363. activity score, % at 18.7 µM. S. cerevisiae UUG-firefly luciferase reporter, luminescence/redox ratio;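 active = replicate mean at a twofold rise or more, about +100% in these data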;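 note: firefly luciferase made from a UUG start codon reports start codon fidelity; reporter light over untreated wells divided by growth signal over untreated wells; some hits fall short of that in this replicate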
Rce1 inhib – yeast Ras-converting enzyme inhibition. Q03530. yeast membranes, quenched prenylated peptide cleavage fluorescence. calls only. 290,000 compounds, 0.27% hits. AID 2563;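 active = fall in fluorescence gain of 50% or more versus controls, with final raw signal at or below 3038400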;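 note: plate controls were neutral control wells for no effect and wells lacking membranes for full effect; tested at 10 µM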
PABP FP inh – PABP-poly(A) binding inhibition. P11940. PABP-poly(A) RNA binding, fluorescence polarization. inhibition, % at 35 µM. 290,000 compounds, 1% hits. AID 2014;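 active = 50% or more with normal probe brightness, or confirmed in later tests; about a fifth of its hits are not listed in these tables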;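 note: calls also rest on retests at 20 µM and on dose response follow-up; controls were probe without protein and protein plus probe with vehicle; some compounds called inactive have numbers as strong as hits; many hits fall short of the cut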
Target sequence (P11940 whole entry, looked up): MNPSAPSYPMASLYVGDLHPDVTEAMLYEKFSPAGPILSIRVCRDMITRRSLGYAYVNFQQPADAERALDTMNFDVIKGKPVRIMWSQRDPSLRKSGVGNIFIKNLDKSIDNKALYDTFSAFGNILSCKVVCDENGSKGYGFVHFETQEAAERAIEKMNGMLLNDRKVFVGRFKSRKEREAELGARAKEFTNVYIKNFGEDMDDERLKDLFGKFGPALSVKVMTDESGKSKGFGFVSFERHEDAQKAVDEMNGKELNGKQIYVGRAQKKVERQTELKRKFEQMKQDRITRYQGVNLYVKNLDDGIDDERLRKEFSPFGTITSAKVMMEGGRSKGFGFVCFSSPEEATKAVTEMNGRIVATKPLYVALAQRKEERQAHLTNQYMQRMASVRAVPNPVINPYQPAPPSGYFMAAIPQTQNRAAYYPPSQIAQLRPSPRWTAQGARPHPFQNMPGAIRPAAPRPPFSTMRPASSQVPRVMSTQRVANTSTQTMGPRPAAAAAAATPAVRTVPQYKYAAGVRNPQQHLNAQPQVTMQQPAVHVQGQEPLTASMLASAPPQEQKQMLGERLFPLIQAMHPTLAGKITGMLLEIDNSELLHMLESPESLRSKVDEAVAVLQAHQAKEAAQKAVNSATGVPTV
CSC inhib – cancer stem cell inhibition; 300,000 compounds, 1.1% hits; cancer stem cell-like cells viability, luminescence; inhibition, % at 7.5 µM;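 active = mean at 75% or more and at least half the replicates too; tested in HMLE shEcad cells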;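 note: 0% = median of negative and 100% = median of positive control wells; the first replicate is given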
eIF4H FP inh – inhibitors of RNA binding by human eIF4H | Q15056 | eIF4H fluorescence polarization binding assay | inhibition, % at 35 µM | 290,000 compounds, 0.94% hits;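 active = 50% or more with normal probe brightness, or confirmed in later tests; about a fifth of its hits are not listed in these tables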;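 note: calls also rest on retests at 20 µM and on dose response follow-up; 0% = protein and probe with vehicle and 100% = probe without protein; strong numbers were not always called active; many hits fall short of the cut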
MT1-MMP act inh – inhibitors of human MT1-MMP activation; P50281; HT1080 RFP-PRO-GFP cells, GFP/RFP ratio fluorescence, overnight; percent of plate control window, DMSO zero; GFP/RFP ratio change, % at 20 µM; 360,000 compounds, 0.061% hits; AID 651647;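 active = GFP/RFP ratio change of at least 30% with cell ATP level not reduced by more than half and red fluorescence within 50% of control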; note: strong numbers were not always called active
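Assay system: HT1080 cells carrying an RFP-PRO-GFP reporter | Dosing: Single dose of 20 µM compound, 1% DMSO final | Incubation: Cells overnight before dosing, compound overnight, 37 °C, 5% CO2 | Evaluation: GFP/RFP fluorescence ratio | Control set: DMSO and RFP-L50D-GFP cell wells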
HIV Env fusion – blocks HIV Env-driven cell-cell fusion. HeLa-JRFL Env/CEM21 cell fusion, luciferase. inhibition, % at 12.3 µM. 360,000 compounds, 1.1% hits. AID 651610;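 active = mean replicate inhibition score of at least 50 and every replicate individually at or above 50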;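 note: 0% = plate neutral controls and 100% = maraviroc near 300 nM; one replicate is shown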
eIF4H FP inh retest – also measured in eIF4H FP inh; calls as there; inhibition, %; compound at 20 µM; confirmation average;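 mean of two retest wells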
PABP FP inh retest – second read-out of PABP FP inh, no call of its own (marks repeat the call); inhibition, %; compound at 20 µM; confirmation repeats;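 mean of two retest wells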
MT1-MMP act inh RFP – recorded beside MT1-MMP act inh, whose call it bears; RFP signal change, %; measured here: RFP expression control read;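 0 = vehicle wells; hits needed this value within 50% of zero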
* marks the source's active call; other numbers are inactive results; i = inactive; . = not tested or not shown; & = joins results of further samples.

Start of the listing, in advance (four entries):
SMILES	UUG fidelity	Rce1 inhib	PABP FP inh	CSC inhib	eIF4H FP inh	MT1-MMP act inh	MT1-MMP act inh RFP	HIV Env fusion	others
CCn1nnnc1NCc1ccc(OCc2ccc(F)cc2Cl)c(OC)c1	-6	i	74	6	1	-2	-4	-5	eIF4H FP inh retest=26;PABP FP inh retest=-3
Cc1cc(CN(C)C(=O)c2ccc(OC3CCN(Cc4ccccn4)CC3)cc2)on1	-13	i	17	-1	-4	-7	-2	-2
COc1ccc(N2CCN(C(=O)CCNS(=O)(=O)c3ccccc3)CC2)cc1	.	i	-24	-20	2	-2	1	17
O=C(Nc1nccs1)c1ccc(COc2ccccc2Br)o1	-22	i	0	196*	-8	2	-10	.

All compounds of this part, from the first entry:
SMILES	UUG fidelity	Rce1 inhib	PABP FP inh	CSC inhib	eIF4H FP inh	MT1-MMP act inh	MT1-MMP act inh RFP	HIV Env fusion	others
CCn1nnnc1NCc1ccc(OCc2ccc(F)cc2Cl)c(OC)c1	-6	i	74	6	1	-2	-4	-5	eIF4H FP inh retest=26;PABP FP inh retest=-3
Cc1cc(CN(C)C(=O)c2ccc(OC3CCN(Cc4ccccn4)CC3)cc2)on1	-13	i	17	-1	-4	-7	-2	-2
COc1ccc(N2CCN(C(=O)CCNS(=O)(=O)c3ccccc3)CC2)cc1	.	i	-24	-20	2	-2	1	17
O=C(Nc1nccs1)c1ccc(COc2ccccc2Br)o1	-22	i	0	196*	-8	2	-10	.
Cc1ccc([C@@H]2C[C@H]3[C@@H](CN2S(=O)(=O)c2ccc(Cl)cc2)C(=O)C[C@@H](c2cccc4ccccc24)N3S(=O)(=O)c2ccc(C)cc2)cc1	-2	.	.	.	.	3	3	-73
O=C(CSCCN1C(=O)c2ccccc2C1=O)Nc1ccc2ccccc2c1	.	i	-3	-4	-14	-5	2	.
Cc1cc(-n2ccnc2)n2c(nc3ccccc32)c1C#N	-26	i	120	17	126	0	5	.	eIF4H FP inh retest=-3;PABP FP inh retest=5
Cc1ccc(C(=O)NCC(=O)OCC(=O)NC(C)c2ccccc2)s1 (stereo not given)	.	i	-7	5	-3	2	3	26
COc1cc(NC(=O)COC(=O)/C=C/c2ccc(O)c(OC)c2)cc(OC)c1	.	.	-10	-2	-2	1	3	15
CCOc1ccc(OCC)c(-c2c(=O)n(OCc3ccccc3Br)c3ccccc3[n+]2[O-])c1	.	i	0	-6	-9	-6	-8	.
COc1cc(CC(=O)Nc2nc(C)cs2)cc(OC)c1OC	-20	i	-17	-1	0	0	-12	18
Cc1ccc(NC(=O)c2ccc3snnc3c2)cc1	.	i	-4	.	-6	-6	-2	-66
Cc1ccc(-c2nn(CC(=O)N3CCOCC3)c(=O)c3ccccc23)cc1S(=O)(=O)N(C)C	-9	i	-1	-3	-7	3	10	-6
COc1ccc(CCC(=O)Nc2c(-c3ccc(N(C)C)cc3)[nH][nH]c2=O)cc1	-23	.	.	.	.	6	1	-19
COc1c(C)cc(NC(=O)c2ccc3c(c2)NC(=O)CO3)cc1C	.	i	-5	.	1	3	0	10
Nc1nonc1-n1nnc(C(=O)N/N=C/c2cccc(Cl)c2)c1-c1ccc2c(c1)OCO2	-13	i	3	-4	-4	-1	2	1
O=C(OCC(=O)c1c[nH]c2ccccc12)c1cncc(Br)c1	-22	.	.	-13	.	-7	0	.
COc1ccc(N(C)S(=O)(=O)c2cccc(C(=O)Nc3ccc(OC)nc3)c2)cc1	.	i	2	16	9	.	.	9
C/C(=N/NC(=O)CN1CCN(S(=O)(=O)c2ccc(Br)cc2)CC1)c1cccnc1	.	i	18	-4	-5	2	2	-8
CC1(C)Cc2cccc(OCC(=O)NCc3ccc(F)cc3)c2O1	3	.	.	.	.	-2	0	3
COc1cc(C(=O)NC(=S)Nc2ccccc2N2CCOCC2)cc(OC)c1OC	-22	i	0	14	-2	10	-7	30
COc1ccc(NC(=S)N/N=C2/CCCc3c(C)cc(C)cc32)cc1	4	i	-2	-7	11	0	0	.
CSCCC(C(=O)OCC(=O)c1ccc(C)c(C)c1)N1C(=O)c2ccccc2C1=O (stereo not given)	.	i	4	4	-2	-1	0	20
COc1cc(C2C(C#N)=C(N)N(Nc3ccccc3)C3=C2C(=O)CC(C)(C)C3)ccc1OCc1cccc(F)c1 (stereo not given)	.	i	-1	11	-12	-18	-17	.
Cc1ccc(S(=O)(=O)C2(C(=O)Nc3cccc(F)c3)CC2)cc1	-15	i	-6	13	0	4	2	-2
Next entries:
SMILES	UUG fidelity	Rce1 inhib	PABP FP inh	CSC inhib	eIF4H FP inh	MT1-MMP act inh	MT1-MMP act inh RFP	HIV Env fusion	others
COc1ccc(N2CCN(C(=O)CSc3nnc4n3C(C)(C)Cc3ccccc3-4)CC2)cc1	6	i	-11	-3	-3	-2	-5	34
CCOc1ccc(NC(=O)CNC(=O)c2cccs2)cc1	.	i	0	-2	-3	-3	-3	-11
Cc1sc(NC(=O)C(C)C)c(C(=O)Nc2ccccc2)c1C	-11	i	2	-2	4	3	-3	.
CC(=O)c1cc2c(cc1NS(=O)(=O)c1ccccc1C)OCO2	.	i	2	-1	-9	.	.	2
Cc1ccc(S(=O)(=O)n2cc(-c3ccccc3)c3ccccc32)cc1	3	.	.	99*	.	14	5	-164
COC(=O)c1ccc(NC(=O)CCN2CCCCC2)cc1	-18	i	12&6	-10&-4	0&1	0&-4	0&1	-200
C=CCOc1cccc(C2/C(=C(/O)c3ccc(F)cc3)C(=O)C(=O)N2CCN2CCOCC2)c1 (stereo not given)	-10	i	0	2	-14	-2	2	8
COc1cccc(NC(=O)CN(C)C(C)C(=O)Nc2ccc(S(=O)(=O)N3CCOCC3)cc2)c1 (stereo not given)	8	i	7	-3	-8	3	-1	-44
CN(C)C(/C=C/Nc1ccc([N+](=O)[O-])cc1)=C(C#N)C#N	.	i	-4	-7	-9	0	1	3
COC(=O)C(C)n1cnc2c(nnn2Cc2ccc(Cl)cc2)c1=O (stereo not given)	-9	i	-7	.	2	3	6	-17
CCC(C)N1C(=O)S/C(=C/c2ccc3c(c2)n(C)c(=O)n3C)C1=O (stereo not given)	-13	i	-4	-9	-15	6	-5	9
O=C(NCCCN1CCCC1)c1cc2c(Cl)nc3ccccc3c2s1	486*	i	-10	29	-3	-3	-7	-21
CC(Oc1cc2oc(=O)c3c(c2cc1Cl)CCCC3)C(=O)NCc1cccnc1 (stereo not given)	-18	i	2	42	-11	3	3	2
C=CCC[C@@H](Cc1ccc(F)cc1)C(=O)OC[C@@H](Cc1ccccc1)NC(=O)[C@H](CC=C)CC(=O)NCCO	-6	.	.	-1	.	-6	-1	22
CCc1ccc(C(=O)CSc2nc3ccccc3c(=O)[nH]2)cc1	-13	i	5	9	-5	3	7	-95
COc1ccc(CNC(=O)N2CCN(c3ccccc3OC)CC2)cc1	-11	i	-8	0	-12	2	4	0
COc1ccc([C@H]2CC(=O)C=C(c3ccc(CNC(=O)OC(C)(C)C)cc3)C2)cc1	-25	.	.	2	.	0	-18	5
CC(C)(C)C(=O)[C@@H]1[C@@H]2C(=O)N(c3ccc4c(c3)OCCO4)C(=O)[C@@H]2C2c3ccccc3C=CN21 (stereo not given in full)	0	i	6	6	0	2	2	.
Nc1cc[n+](CC(=O)c2ccccc2)cc1	-1	i	7	-12	-8	-1	-3	-38
NNc1nc(-c2ccccc2Cl)c2cc(Br)ccc2n1	-5	i	0	59	-6	3	-1	8
Cc1ccc(S(=O)(=O)N2CCN(c3cnn(-c4ccccc4)c(=O)c3Cl)CC2)cc1	30	i	-1	-4	-1	-1	2	-35
O=C(Cn1c2c(c(-c3ccccc3Cl)cc1=O)CCC2)NCCCN1CCOCC1	-10	i	-5	30	2	-1	3	0
O=C(Nc1ccccc1-c1nnn(CC(=O)N2CCCc3ccccc32)n1)c1ccco1	-21	i	0	-10	-4	8	0	.
CCOc1ccc(NC(=O)CCCn2nc(C)c3c(C)n(-c4ccccc4)nc3c2=O)cc1	3	i	-6	-6	-10	-1	1	3
O=C(Cn1c(-c2ccccc2Cl)nc2ccccc21)Nc1cccc(Cl)c1	.	i	7	-10	1	-1	0	4
(more compounds)
SMILES	UUG fidelity	Rce1 inhib	PABP FP inh	CSC inhib	eIF4H FP inh	MT1-MMP act inh	MT1-MMP act inh RFP	HIV Env fusion	others
CC(C)(C)c1ccc(C(=O)Nc2ccc3c(c2)C(=O)NC3=O)cc1	1	i	-8	2	-7	2	0	20
CCOC(=O)N1CCN(C(=O)COc2ccc3ccccc3c2Br)CC1	-8	i	0	-2	-3	2	0	4
O=C(Cc1sc(-c2ccccc2)nc1-c1ccccc1)Nc1ccc(Cl)cc1	-5	i	-7	5	-3	10	8	.
Cc1ccc(NC(=O)c2ccc(OC(F)(F)F)cc2)cc1S(=O)(=O)N(C)C	.	i	-7	18	-4	-3	-24	62*
CC1CCCC(NC(=O)CCN2C(=O)COc3ccccc32)C1C (stereo not given)	-9	.	.	.	.	5	0	-12
Cc1ccccc1NC(=S)NCc1ccc2c(c1)cc(C)n2C	-35	i	7	-1	24	-5	-6	-79
Cc1cc(C)cc(NC(=O)CCN2C(=O)c3ccccc3C2=O)c1	-13	i	1	2	-1	2	0	12
CC(=O)C1=C(C)NC(=O)NC1c1ccccc1OCC(=O)NCCc1ccccc1 (stereo not given)	-6	i	-9	-12	2	2	2	5
O=C(Nc1cc(S(=O)(=O)N2CCCCC2)ccc1N1CCOCC1)c1ccc(F)cc1	0	.	.	.	.	-6	1	4
O=C(Oc1cccc2cccnc12)c1ccco1	-7	.	-2	9	14	1	7	.
O=C(Oc1ccccc1F)c1ccc2c(=O)n3c(nc2c1)CCC3	3	i	.	-11	.	1	1	-14
CCN1C[C@@H]2[C@@H]3C(=O)N(Cc4ccccc4)C(=O)[C@@H]3[C@](Cc3ccccc3)(C(=O)OC)N2C1=NC	-3	.	.	.	.	1	4	-23
CCCCC1N2CC3([N+](=O)[O-])CN1CC([N+](=O)[O-])(C2)C3(C)C (stereo not given)	.	i	0	-18	-2	2	1	7
CC1(C(=O)NS(=O)(=O)c2ccccc2Cl)CCN1C(=O)C/C=C/c1ccccc1 (stereo not given)	-1	.	.	.	.	-3	3	-15
CCN(CC)S(=O)(=O)c1cccc(C(=O)Nc2cccc(C)c2)c1	-19	i	-10	1	-8	2	-3	-42
COC(=O)c1cc(C(=O)OCC(=O)NCc2ccc3c(c2)OCO3)cc([N+](=O)[O-])c1	.	i	-9	2	-9	2	3	.
CCC(C)N(C(=O)COC(=O)CSc1ccc([N+](=O)[O-])cc1)C1CCS(=O)(=O)C1 (stereo not given)	-13	i	-14	.	-7	0	1	-6
CSCC[C@H](NC(=O)OC(C)(C)C)c1nnc(SCc2cccc(F)c2)o1	-6	i	4	-2	-8	-4	-9	.
Cc1ccc(NC(=O)C2CCCC2)cc1Cl	-27	i	.	.	.	-2	-4	12
COc1ccc(C(=O)C=Cc2ccc(OCc3ccccc3)c(OC)c2)cc1OC	-31	.	.	.	.	0	-9	17
Cn1c(SCC(=O)Nc2cc(Cl)cc(Cl)c2)nnc1-c1ccc2nonc2c1	-22	i	1	-2	-6	-4	-8	37
CC1CCN(c2ccc([N+](=O)[O-])cn2)CC1	2	i	0	3	-9	-1	0	-45
CN1CCc2c1nc1ccccc1c2NC(=O)CN1CCCC1	-25	i	2	-16	-2	-1	1	10
Cc1ccc(C(=O)N2CCN(c3ccc([N+](=O)[O-])c(N4CCOCC4)c3)CC2)cc1	11	i	3	-10	-5	2	-3	25
S=c1[nH]nc(-c2cccs2)n1C1CCCCC1	-4	i	15	8	-1	0	1	1
CCOC(=O)c1ccccc1NC(=O)COC(=O)C1CCN(S(=O)(=O)c2ccccc2C(=O)OC)CC1	14	i	.	-7	.	0	2	-9
CN(CCC1CCOCC1)C(=O)CC1C(=O)NCCN1Cc1ccccc1F (stereo not given)	-11	i	3	2	5	3	4	.
COc1ccc2nc(NCCO)[nH]c2c1	-2	i	8	-8	-16	0	5	.
